# Screens deposited in PubChem by National Center for Advancing Translational Sciences (NCATS).
# Vaccinia Venus: inhibitors of vaccinia virus (Venus reporter) | Vaccinia virus Venus reporter expression, fluorescence | 330,000 tested, 0.46% active | AID 720580 | Potency, µM (titrated, usually from 36.5 µM), for inactives: at the highest dose activity change, negative = inhibition, most hits filed as inhibitors; active means well fitted inhibition curve with a large enough effect; inconclusive means small, poorly fitted or top-dose-only effect; inactive means no such curve, though single readings can be large or run the other way; tested in A549 cells; further: nearly all actives have a fitted effect of over 30% in size; inactives centre near -10
# VACV mCherry inh: vaccinia inhibition (mCherry reporter); Vaccinia virus mCherry reporter infection, fluorescence; about a quarter of the inactives have no number; Potency, µM (doses to about 36.5 µM), inactives show at the top dose activity change, negative = inhibition, hits mostly inhibitors; 310,000 tested, 0.63% active; active = well fitted inhibition curve with a large enough effect; inconclusive = small, poorly fitted or top-dose-only effect; inactive = no such curve, though single readings can be large or run the other way; tested in A549 cells; further: nearly all actives have a fitted effect of over 35% in size; inactives centre near -10
# Starred values were filed as active, the others as inactive; i = inactive; ? = inconclusive; . = not tested or not shown; & = joins results of further samples; [ ] = another dose, or the depositor's remark. On the % scale 0 is the no-effect control and ±100 the full control effect; potency means the concentration at half of the fitted maximal effect.
# Order of values: VACV mCherry inh | Vaccinia Venus
Cc1ccc2nc(-c3ccc(NC(=O)CSc4nc(N)cc(=O)[nH]4)cc3)sc2c1
→ 10.8%[7.34 µM] | 2.5%[7.34 µM]
Cc1ccc(OCC(=O)N(C)C2CCCCC2)c([N+](=O)[O-])n1
→ -1.9% | -12.0%
CCOc1ccccc1N1CCN(C(=S)Nc2ccc(S(N)(=O)=O)cc2)CC1
→ i | -21.5%
CCOC(=O)C1=C(C)NC(=O)NC1c1cn(-c2ccccc2)nc1-c1ccc(OCC)cc1 (stereo not given)
→ -5.3% | -0.8%
CCOC(=O)c1c(C)[nH]c(CCC(=O)NCc2ccc(OC)cc2OC)c1C
→ -10.4% | -7.4%
CN1CCN(C(=O)N2CCNC2=O)CC1
→ -9.2% | -10.8%
Cn1nnnc1SCc1ccc(CSc2nnnn2C)cc1
→ i | -12.6%
Cc1ccc(CCNc2ncnc3onc(-c4ccc(Cl)cc4)c23)cc1
→ -10.5% | 6.4%
O=C(NCC1CCCO1)c1ccc(Oc2ccc([N+](=O)[O-])cc2Cl)cc1 (stereo not given)
→ -10.7% | -5.4%
O=C(O)Cc1ccc(NC(=O)Nc2ccc(Br)cc2)cc1
→ -12.4% | -8.4%
CCOC(=O)C1(C)CCN1C(=O)c1ccccc1 (stereo not given)
→ -5.8% | 5.2%
COC(=O)c1cnc(NC(=O)C2(C)CCN2C(=O)C(C)C)s1 (stereo not given)
→ 17.6% | -2.5%
COc1ccccc1C(=O)NCC(=O)N/N=C/c1ccc2c(c1)OCO2
→ ? | -17.1%
COc1cc(C#N)ccc1OC(=O)c1cccc(S(=O)(=O)N2CCN(C)CC2)c1
→ -19.6% | -20.4%
O=C(OCC(=O)N1CCCC1)c1ccc(OC(F)(F)F)cc1
→ -0.5% | -17.5%
CC1CC(C)CN(CCCNC(=O)CN2C(=O)CSc3ccc(S(=O)(=O)N4CCOCC4)cc32)C1 (stereo not given)
→ -4.4%[7.34 µM] | 9.4%[7.34 µM]
CCOc1cc(/C=C(\C#N)C(=O)Nc2cccc(C(=O)O)c2)ccc1OCc1ccccc1Cl
→ -10.4% | -6.3%
CC1(C2CC2)NC(=O)N(CC(=O)Nc2ccc(OC(F)F)cc2)C1=O (stereo not given)
→ -10.3% | -5.2%
COc1ccc(-c2noc3c2-c2nc(-c4ccc(Cl)cc4)sc2CC3)cc1
→ ? | -14.2%
Cc1c(C(=O)Nc2nccs2)oc2ccc(Br)cc12
→ 18.5% | -11.7%

# More structures
# Order of values: VACV mCherry inh | Vaccinia Venus
O=S(=O)(c1ccccc1Oc1ccc(Cl)cc1Cl)N1CCCCC1
→ -2.2% | -16.9%
COc1ccc(Nc2c(-c3ccsc3)nc3nc(C)cc(C)n23)cc1
→ -7.8% | -9.6%
CCn1cc(C(=O)N2CCN(c3cc(C)ccc3C)CC2)c(=O)c2cc(S(=O)(=O)N3CCOCC3)ccc21
→ -20.3% | -20.0%
Oc1ccc(/C=C/c2ccnc3ccccc23)cc1
→ ? | -28.9%
O=C(N1CCOCC1)N1CCC(n2nnc3cc(F)ccc32)CC1
→ -4.8% | 3.4%
Cn1c(=O)c2c(nc(OCC3COC(C)(C)O3)n2Cc2ccccc2F)n(C)c1=O (stereo not given)
→ . | -2.4%
Cc1cccc(NC(=O)Cn2cc(S(=O)(=O)c3ccc(F)cc3)c(=O)c3cc4c(cc32)OCO4)c1
→ -0.1% | -6.9%
Cc1cc(C)c2c(=O)[nH]c(SCc3ccccc3C)nc2n1
→ -9.1% | -13.8%
CCc1ccc(S(=O)(=O)Nc2cccc(-c3ccc4nncn4n3)c2)s1
→ -12.0% | -24.0%
CCOC(=O)c1sc(/N=C/c2c(O)n(-c3ccccc3)c(=O)[nH]c2=O)c(C#N)c1C
→ -21.4% | -10.7%
COc1ccccc1CNC(=O)[C@@H](NC(=O)C1CCN(C(=O)[C@@H]2CCCN2C(=O)OC(C)(C)C)CC1)C(C)C
→ -5.9% | -11.7%
CCNC(=O)NC(=O)CSc1nnc(-c2c[nH]c3ccccc23)o1
→ -6.8% | -12.6%
COc1ccc(OC)c(/C=N\NC(=O)c2ccc(-c3ccccc3)cc2)c1
→ -24.0% | -25.9%
COc1ccc(NC2CCCN(C(=O)c3ccc(C(C)=O)s3)C2)cc1 (stereo not given)
→ ? | -17.0%
CC(C)(O)C(O)COc1c2ccoc2cc2oc(=O)ccc12 (stereo not given)
→ 8.4% | 1.5%
CCOc1ccc(Cl)cc1-c1cc(C(=O)NCc2ccccc2)[nH]n1
→ 6.9% | -23.7%
COc1ccccc1C(CNC(=O)c1oc2ccccc2c1C)N1CCCC1 (stereo not given)
→ -9.6% | -8.8%
Cc1ccc(Sc2oc(/C=N/n3cnnc3)cc2Br)cc1
→ i | 9.9%
c1ccc(-c2ccc(CN3C[C@@H]4C(c5ccccc5)C5(c6cccnc6)CC4(C5)[C@H]3c3ccccc3)cc2)cc1 (stereo not given in full)
→ ? | -6.9%
CC(=O)N1CCN(Cc2nc3cc(NC(=O)c4cccc(Br)c4)ccc3n2C)CC1
→ i[7.34 µM] | -10.6%[7.34 µM]

# Continued.
# Order of values: VACV mCherry inh | Vaccinia Venus
Cc1ccc(N(CC(=O)NCc2ccccc2)S(=O)(=O)c2c(C)noc2C)cc1
→ -3.7% | -12.9%
CC(=O)Nc1ccc(NC(=O)c2ccc(N(Cc3ccccc3C)S(C)(=O)=O)cc2)cc1
→ -10.7% | -0.8%
COC(=O)CNC(=O)/C=C/c1ccc(OC)cc1
→ -3.7% | -5.6%
Cc1ccc(C(C(=O)NC2CCCC2)N(Cc2ccc3c(c2)OCO3)C(=O)c2snc(C(N)=O)c2N)cc1 (stereo not given)
→ i | 0.6%
CC(Sc1nc2ccccc2s1)C(=O)N1CCOCC1 (stereo not given)
→ i | -6.5%
COc1ccc(S(=O)(=O)Nc2ccc(NC(C)=O)cc2)cc1Br
→ -4.3% | -13.5%
O=C(Nc1ccc(O)c2c(=O)cc(-c3ccccc3Cl)oc12)c1ccc(F)cc1
→ ? | -21.2%
Cc1cccc(OCCn2c(=O)sc3ccccc32)c1
→ . | -27.0%
CC(C)c1ccccc1NC(=O)c1cccnc1
→ . | 1.5%
O=C(/C=C/c1ccc(Cl)cc1Cl)N1CCN(c2ccccc2[N+](=O)[O-])CC1
→ -6.6% | -15.7%
C[C@H](CO)N1C[C@H](C)[C@@H](CN(C)S(=O)(=O)c2ccc(F)cc2)Oc2c(NS(=O)(=O)c3ccc(F)cc3)cccc2C1=O
→ i | -17.8%
COc1cccc(N(CC(=O)NCc2ccccc2)C(=O)CCC(=O)Nc2nccs2)c1
→ -3.7% | -14.0%
Cc1cccc(NC(=S)NC2CC3CCC(C2)N3Cc2ccco2)c1 (stereo not given)
→ i | -14.2%
COc1ccccc1N1CCN(Cc2nc(N)nc(Nc3ccc(C)c(Cl)c3)n2)CC1
→ ? | ?
CCN(CC)S(=O)(=O)c1ccc2c(c1)N(CC(=O)NCC(C)c1ccccc1)C(=O)CO2 (stereo not given)
→ i | -7.5%
COc1cc(CNC(=O)c2cnc(C)cn2)cc(OC)c1
→ -14.5% | -8.2%
CC1SC(=NC(=O)c2ccncc2)NC1=O (stereo not given)
→ i | -6.3%
Cc1ccccc1-n1c(C)nnc1SCC(=O)N1CC(=O)Nc2ccccc21
→ i | -12.4%
C=CCCC(=O)N1C[C@H]2CON(C)[C@H]2C[C@H]1c1ccccc1Br
→ i | -5.4%
CS(=O)(=O)N(Cc1ccccc1)c1ccc(C(=O)NC2CCCCC2O)cc1 (stereo not given)
→ -10.9% | -5.5%

# (further entries)
# Order of values: VACV mCherry inh | Vaccinia Venus
c1nc(N2CCC3(CC2)OCCO3)c2c3c(sc2n1)CCCC3
→ . | -16.3%
O=C1S/C(=C\C=C\c2ccco2)C(=O)N1c1ccccc1
→ -10.1% | -13.3%
Cc1ccc(C(=O)NCCc2ccc(F)cc2)s1
→ -28.7% | -23.7%
CN(C)S(=O)(=O)c1cccc(C(=O)OCC(=O)Nc2sccc2C#N)c1
→ i | -10.5%
CCCCOc1ccc(C2c3c(oc4ccc(C)cc4c3=O)C(=O)N2CCCN(C)C)cc1OCC (stereo not given)
→ -5.4% | -1.8%
Clc1ccc(/C=C/c2nc(Cl)c(-c3ccc(Cl)cc3)c(Cl)n2)cc1
→ -0.9% | -12.2%
COc1nc(Oc2ccc(=O)n(-c3ccccc3)n2)nc(N(C)C)n1
→ -2.3% | -3.0%
CC[C@]12c3[nH]c4ccccc4c3CCN1C(=O)C(CC(=O)NCc1ccco1)C[C@@H]2C(=O)N1CCN(C(=O)c2ccco2)CC1 (stereo not given in full)
→ i | 0.0%
COc1ccc(NC(=S)N2CCN(S(=O)(=O)c3ccccc3)CC2)cc1OC
→ -16.5% | -13.3%
CCN(C[C@H]1N[C@@](C)(C(=O)OC)[C@H]2C(=O)N(Cc3ccccc3)C(=O)[C@@H]12)C(=O)NC(C)C
→ i | -8.2%
CC(Oc1ccc(C#N)cc1)C(=O)c1ccc(F)c(F)c1 (stereo not given)
→ -6.5% | -13.2%
C[C@H]1CN([C@@H](C)CO)S(=O)(=O)c2ccc(-c3ccncc3)cc2O[C@H]1CN(C)C(=O)c1cccc(F)c1
→ i | -10.0%
O=C(NCc1ccccc1)c1nccnc1CO
→ i | -1.4%
COC(=O)c1ccc2nc(-c3ccc(F)cc3)c(Cc3cccc(F)c3)n2c1
→ -1.1% | -1.6%
Cc1cc(C)n2nc(SCC(=O)Nc3c(C)n(C)n(-c4ccccc4)c3=O)nc2n1
→ . | 13.1%
Cc1nnc(NC(=O)c2ccc3c(c2)OCO3)s1
→ -6.4% | -4.9%
COc1ccc(/C=C2/SC(=S)N(c3ccc(S(=O)(=O)Nc4nccs4)cc3)C2=O)cc1
→ -7.2% | .
COc1ccc(CNC(=O)C(C(C)C)N2Cc3ccccc3C2=O)cc1 (stereo not given)
→ i | -11.7%
O=C(CCN1CCN(C/C=C/c2ccccc2)CC1)Nc1ccccc1
→ -10.5% | -25.2%
COC(=O)c1ccc(NC(=O)CN2CCN(S(=O)(=O)c3ccc(Br)cc3)CC2)cc1
→ -14.8% | -12.9%

# Other structures
# Order of values: VACV mCherry inh | Vaccinia Venus
CCOC(=O)c1c(NC(=O)CS(=O)(=O)c2ccc(C)cc2)sc2c1CCCCC2
→ -11.0% | -5.6%
COc1ccc2c(c1)OC/C(=C/c1ccc(O)c(O)c1)C2=O
→ -16.8% | -11.0%
Cc1cc2c(s1)c1cnn(CC(=O)N3CCOCC3)c(=O)c1n2C
→ 1.5% | 3.5%
COC(=O)c1ccccc1NC(=O)N1CCC(N2CCN(Cc3ccc(F)cc3)C(=O)C2=O)CC1
→ 11.8% | 4.4%
COc1ccc(NS(=O)(=O)c2cc(C(=O)NNC(=O)c3ccncc3)ccc2OC)c(OC)c1
→ i | -1.9%
CCC(=O)Nc1cccc(NC(=O)CSc2nnc(C3CC3)n2C)c1
→ -0.6% | -12.5%
Clc1ccc(Cn2ncc3c(NCc4cccnc4)ncnc32)cc1
→ . | 8.91µM*
CCOC(=O)N1CCN(C(=O)CCN2C(=O)/C(=C\c3ccc(OC)c(OC)c3)SC2=S)CC1
→ -28.4% | ?
CCOc1ccc(NC(=O)N2CC(C)OC(C)C2)cc1 (stereo not given)
→ i | -6.0%
NC(=O)C1CCN(C(=O)c2ccc(C(F)(F)F)cc2)CC1
→ . | -4.9%
COc1ccc(C(=O)COC(=O)CCN2C(=O)C3C4C=CC(C5CC45)C3C2=O)cc1 (stereo not given)
→ -12.1% | 2.7%
COc1ccccc1-c1nnc(NC(=O)C(C)Sc2nncn2C)s1 (stereo not given)
→ i | -0.3%
CC(Oc1ccccc1)C(=O)Nc1oc(-c2ccco2)c(-c2ccco2)c1C#N (stereo not given)
→ ? | 4.7%
Cc1cc(NS(=O)(=O)c2ccc(NC(=O)CNS(=O)(=O)c3ccccc3)cc2)nc(C)n1
→ -16.7% | -6.5%
CN(CC(=O)NCCC1=CCCCC1)S(=O)(=O)c1ccc2c(c1)c(=O)n(C)c(=O)n2C
→ -11.8% | ?
CC(=O)c1ccc(NC(=O)c2cn(C)c(=O)c3ccccc23)cc1
→ -0.7%&9.9% | -5.0%&-2.9%
Cc1nc(C)c(C(=O)OCC(=O)Nc2ccccc2SCC#N)s1
→ -7.5% | 10.4%
COc1ccccc1-c1nnc(SCC(=O)O)n1C
→ i | -6.4%
C[C@@H]1CC[C@@]2(O[C@H](CCO)C[C@H](O)[C@H]2O)O1
→ -13.0% | -0.4%
COc1cc2c(cc1OC)C1CCc3cc4c(cc3C1N=C2)OCO4 (stereo not given)
→ -19.2% | -13.2%

# Another view of some results above.
Compound | VACV mCherry inh | Vaccinia Venus
Cc1ccc(C(C(=O)NC2CCCC2)N(Cc2ccc3c(c2)OCO3)C(=O)c2snc(C(N)=O)c2N)cc1 (stereo not given) | i | 0.6%
CC(Sc1nc2ccccc2s1)C(=O)N1CCOCC1 (stereo not given) | i | -6.5%
COc1ccc(S(=O)(=O)Nc2ccc(NC(C)=O)cc2)cc1Br | -4.3% | -13.5%
O=C(Nc1ccc(O)c2c(=O)cc(-c3ccccc3Cl)oc12)c1ccc(F)cc1 | ? | -21.2%

# The list continues:
# Order of values: VACV mCherry inh | Vaccinia Venus
CC(C)Cn1c(CN2CCN(c3ccccc3F)CC2)nc2c1c(=O)[nH]c(=O)n2C
→ i | -16.8%
CCOC(=O)C[C@H]1c2ccccc2S(=O)(=O)N1C1CC1
→ -1.0%&-10.1% | -4.5%&-4.5%
O=C(OCc1ccco1)c1ccc2c(c1)N(Cc1ccc([N+](=O)[O-])cc1)C(=O)c1ccccc1S2
→ -13.9% | 2.9%
Cc1ccc(S(=O)(=O)N2[C@@H](c3ccc(Br)cc3)C(C(=O)O)=C[C@H]2C(C)(C)C)cc1
→ -18.0% | -3.2%
